TRPML1 blocker = human mucolipin-1 channel inhibition | Q9GZU1 | TRPML1-inducible cells, Ca2+ dye fluorescence, FDSS; stronger effect = lower value; inhibition of EC80 agonist-evoked calcium signal | activity change, negative = inhibition, % (test concentration not listed) | 0.02% of 390,000 active; in the data active means activity change below about -50%; inconclusive means about -30% to -50%; inactive means above about -30%;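 note: stimulus is agonist 54-4 at its EC80 concentration; % is set by controls: 0 for no effect and ±100 for the full control effect; compound concentration not given in the record; the text of the record puts the active cut at -80%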
Target sequence (Q9GZU1 whole entry, looked up): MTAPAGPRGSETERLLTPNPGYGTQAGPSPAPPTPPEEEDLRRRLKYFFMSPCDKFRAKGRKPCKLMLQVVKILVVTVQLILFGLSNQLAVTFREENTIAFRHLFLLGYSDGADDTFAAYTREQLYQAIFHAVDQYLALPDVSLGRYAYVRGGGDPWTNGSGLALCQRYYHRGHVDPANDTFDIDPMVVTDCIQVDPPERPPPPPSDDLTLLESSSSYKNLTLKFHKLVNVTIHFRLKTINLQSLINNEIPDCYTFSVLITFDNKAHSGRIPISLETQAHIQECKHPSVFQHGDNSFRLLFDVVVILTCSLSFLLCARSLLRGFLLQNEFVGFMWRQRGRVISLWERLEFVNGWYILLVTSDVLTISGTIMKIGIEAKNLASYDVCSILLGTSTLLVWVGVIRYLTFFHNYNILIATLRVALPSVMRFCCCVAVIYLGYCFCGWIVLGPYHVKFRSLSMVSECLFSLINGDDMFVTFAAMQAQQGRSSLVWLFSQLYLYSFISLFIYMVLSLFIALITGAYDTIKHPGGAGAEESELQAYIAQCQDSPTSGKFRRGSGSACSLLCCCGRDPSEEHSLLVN
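Calcium fluorescence in TRPML1-DL cells induced overnight with Tet: a 110 s read after compound pin addition, then a 110 s antagonist read after challenge with 54-4 at 4 uM final (EC80).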
ClpP mod = qHTS Assay for Activators of ClpP | purified B. subtilis ClpP, FRET peptide cleavage, 20 min | 1.9% of 340,000 active | Potency, µM (titrated, usually from 57.5 µM), inactives show at the highest dose activity change, negative = active | AID 651965, 2013 | ATP-dependent Clp protease proteolytic subunit (Bacillus subtilis (strain 168)), P80244; active = well fitted falling curve with a large enough effect; inconclusive = small, poorly fitted or top-dose-only effect; inactive = no such curve, though single readings can be large or run the other way; note: potency is the fitted concentration of half-maximal effect; the source files actives as falling curves though it sought activators and does not explain the sign; nearly all actives have a fitted effect of over 65% in size; many hits overshoot -100%
Target sequence (P80244 whole entry, looked up): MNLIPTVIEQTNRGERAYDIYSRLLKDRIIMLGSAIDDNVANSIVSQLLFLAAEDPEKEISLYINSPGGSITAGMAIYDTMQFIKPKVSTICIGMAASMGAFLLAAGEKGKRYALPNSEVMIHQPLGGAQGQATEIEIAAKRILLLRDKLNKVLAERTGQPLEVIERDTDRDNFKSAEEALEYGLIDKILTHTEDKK
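ClpP 10 microg/mL final, pH 8 Tris/KCl buffer with BSA, glycerol, Tween-20; compound pinned in; FRET-FV substrate; RT 20 min; Ex320/Em430; ΔFRET vs ADEP 5.8 microM, DMSO, no enzyme.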
PINK1 modulator = PINK1 expression modulation; Potency, µM (series often up to 76.6 µM), for inactives: at the top dose activation (PINK1 increase), actives largely listed as activators; PINK1 immunofluorescence, high-content cytometry, 24 h; 0.2% of 410,000 active; active = well fitted activation curve with a large enough effect; inconclusive = small, poorly fitted or top-dose-only effect; inactive = flat fitted curve, though single readings scatter; cell line not stated here;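 note: potency is the fitted concentration of half-maximal effect; % of control where 0% means no effect; nearly all actives have a fitted effect of over 65% in size; a mitochondrial uncoupler was the plate control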
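PINK1 protein, normally rapidly degraded, was detected by immunofluorescence after 24 hour compound treatment of a stable cell line. Titration data (5 concentrations) came from laser-scanning cytometry, with CCCP-treated wells as controls.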
TRPML1 agonist = human mucolipin-1 channel agonism; Q9GZU1; TRPML1-expressing cells, Ca2+ dye fluorescence, FDSS; host cell line not named in the record; reference of the full effect not given here; activation, % (concentration not given with the values); 0.12% of 410,000 active; in the data active = activation above about 50%; inconclusive = about 30% to 50%; inactive = below about 30%; note: 0% is about no effect; the text of the record puts the active cut at 80%
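Kinetic FDSS Ca2+ read in Tet-induced TRPML1-DL cells (ABD Ca8 dye plus quencher, 45-90 min RT loading): baseline, then compound, then 110 s agonist window; EC80 agonist 54-4 at 4uM final added afterwards for a 110 s antagonist window.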
Sfp inh = inhibitors of Bacillus subtilis Sfp phosphopantetheinyl transferase; Potency, µM, inactives show max response, negative = inhibition, hits mostly inhibitors; Biochemical Sfp PPTase activity, qHTS; 3.5% of 310,000 active; Q9F4F7; AID 1490; active = well fitted inhibition curve with a large enough effect; inconclusive = small, poorly fitted or top-dose-only effect, or another doubt; inactive = no such curve, though single readings can be large or run the other way;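 note: the enzyme is Sfp with the accession as filed and its product quenches rhodamine fluorescence; potency is the fitted concentration of half-maximal effect; 0% = enzyme reaction without inhibitor and -100% = no enzyme wells; top concentration of the series not given in the record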
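With Hepes-Na pH 7.6 buffer containing 10 mM MgCl2, Sfp (15 nM) modified BHQ-2-YbbR (12.5 uM) using rhodamine-CoA (5 uM). Two reads 30 minutes apart at 525/598 nm yielded each well's rate.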
Menin MLL FP FL = menin-MLL binding inhibition, fluorescein peptide; 290,000 tested, under 10 active; AID 1766; Fluorescence polarization, fluorescein-MLL peptide displacement from menin; FP activity change, % at 61.4 µM; inconclusive = falling polarisation curve, or a change in total fluorescence; inactive = total fluorescence flat and polarisation flat or rising; no compound was filed as active; the % refers to the polarisation; negative = inhibition;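 note: % of control where 0% means no effect; inhibitors lower the polarisation; unlabelled MLL peptide was the positive control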
TRPV1 PAM = human TRPV1 potentiation. TRPV1-expressing cells, Fluo-8 calcium influx, capsaicin EC20 potentiation; host cell line not named in the record; control for the full effect not named in the record. AID 540277. potentiation, % at 8.33 µM. 0.02% of 320,000 active. Q8NER1; active means potentiation above 80%; inconclusive means 30% to 80%; inactive means below 30%; note: 0% is about no effect
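Fluo-8 calcium influx in TRPV1-expressing cells, kinetic read (ex 480/em 520 nm). Compound added and read 3 min for agonist activity, followed by capsaicin at EC20 final and 2 min further read for enhancement.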
Starred values were filed as active, the others as inactive; ? = inconclusive; . = no result given; & = joins results of further samples; [ ] = another dose, or the depositor's remark.

The line under a structure holds: TRPML1 blocker	ClpP mod	PINK1 modulator	TRPML1 agonist	Sfp inh	Menin MLL FP FL	TRPV1 PAM
Cc1cccc(C)c1N1CCN(S(=O)(=O)c2ccc(F)cc2)CC1
→ 11.3	-4.5%	2.8%	2.8	2.0%	?	-9.6
N#Cc1c(N)nc2c3c(sc(=N)c2c1N)NC(=O)CC3c1ccccc1Cl (configuration not stated)
→ -16.7	45.9%	4.8%	1.0	5.0%	4.8	13.1
Cc1ccc(NC(=O)Cn2cc(C=O)c3ccccc32)cc1C
→ .	0.7%	4.3%	.	13.3%	-6.4	-2.1
Cc1ccc(C)c(C(=O)CCC(=O)Nc2ccc(F)cc2)c1
→ 21.1	-2.5%	1.8%	1.4	10.5%	-1.9	-12.4
CCc1cccc(C)c1NC(=O)Cn1c(NCCO)nc2ccccc21
→ -7.4	-2.3%	3.3%	-0.5	4.6%	0.1	-0.6
Cc1cc(Cl)ccc1Oc1nc(-c2ccccc2)ncc1S(C)(=O)=O
→ -16.5	1.1%	8.5%	0.7	2.3%	4.6	8.3
CCC1(CC)C(=O)C2=C3C1[C@H](C(=O)OC)CC(C(=O)OC)C[C@H]3n1c(=O)n(C)c(=O)n1[C@H]2C (some centres not stated)
→ 7.7&-17.3	-0.4%	1.8%	-0.4&0.2	3.9%	-0.2	.
COc1cc(S(=O)(=O)N2CCOCC2)ccc1NC(=O)COc1ccc(N(C)S(=O)(=O)c2ccc(C)cc2)cc1
→ -3.2	1.3%	0.0%	-0.4	10.9%	0.7	-3.2
CC1CN(C(=O)/C(C#N)=C2\N=C(NC(=O)c3ccc(F)cc3)c3ccccc32)CC(C)O1 (configuration not stated)
→ 2.2	0.1%	-1.2%	0.7	1.9%	3.3	-0.2
Cc1ccc(C(=O)CSc2nnc(-c3snnc3C)n2C2CC2)cc1
→ 4.2	.	4.6%	1.3	-8.3%	-0.3	-5.7
Cc1cc(NS(=O)(=O)c2ccc(NC(=O)COc3ccc(Br)cc3)cc2)nc(C)n1
→ 33.7	-4.5%	-0.9%	0.7	3.9%	-1.4	26.4
COC(=O)[C@]1(Cc2ccccc2)N[C@H](c2ccc(SC3CCCCC3)c(OC)c2)[C@@H]2C(=O)N(C)C(=O)[C@@H]21
→ 18.7	-24.0%	2.9%	0.9	.	.	.
Cc1ccc(CNC(=O)C2(NC(=O)Nc3ccc(C)cc3)CCCCC2)cc1
→ 0.3	0.3%	.	1.0	22.2%	5.9	-1.8
Cn1c(=O)oc2cc(S(=O)(=O)N3CCC(C(=O)N4CCN(c5ccccc5)CC4)CC3)ccc21
→ 8.0	-0.7%	-0.5%	-1.0	3.4%	-0.4	-1.8
Cc1ccc(Cn2cc(C(=O)c3ccc(F)cc3)c(=O)c3cc4c(cc32)OCCO4)cc1
→ 24.5&10.5	-3.7%&-3.5%	-1.2%&7.5%	2.6&0.3	1.5%	4.6	7.4
CCSc1ccccc1C(=O)Nc1cccc(OC)c1
→ 2.3	1.6%	50.6%[38.3 µM]	-0.3	-0.3%	4.6	-4.3
COCc1cc(=O)n2[nH]c(C)cc2n1
→ 14.6	17.8µM*	0.1%	-0.4	-5.8%	4.8	-3.6
Cc1ccc([N+](=O)[O-])cc1NC(=O)C1CCN(S(C)(=O)=O)CC1
→ -13.6	-1.2%	-1.4%	-0.5	0.8%	2.0	-5.8
O=C(O)C1=C[C@H](c2ccccc2)C[C@H](OCc2ccc(CO)cc2)O1
→ -6.5	-1.5%	1.0%	-0.4	21.4%	4.9	-8.5
O=C(NC1CCCCC1)C(c1ccccc1)N(C(=O)c1csnn1)C1CCCC1 (configuration not stated)
→ -4.1	0.5%	4.7%	-0.5	-2.7%	3.0	18.2
NC(=O)C1CCN(C(=O)c2ccc(Oc3ccccc3)cc2)CC1
→ 6.6	1.1%	2.0%[38.3 µM]	0.5	17.9%	5.0	1.7
COc1ccccc1/C=C/CN1CCCCC1
→ -1.5	0.6%	-0.8%	0.6	4.3%	1.4	0.8
COc1ccc(NC(=O)c2cc3c([nH]c2=O)CC(c2ccccc2)CC3=O)cc1 (configuration not stated)
→ 3.9	0.0%	-0.7%	-0.9	.	.	.
Cc1[nH]n(-c2ccccc2)c(=O)c1C(c1ccc(C(=O)O)cc1)c1c(C)[nH]n(-c2ccccc2)c1=O
→ 0.0	1.0%	1.7%	0.5	-0.8%	-0.5	-8.5
CCOC(=O)c1c(C)[nH]c(C)c1S(=O)(=O)NC1CCN(C(=O)OCC)CC1
→ -0.2	0.2%	0.1%	0.6	26.0%	1.6	19.8
C=CCN(CC=C)c1ncnc2[nH]ncc12
→ -5.6	.	-3.5%	0.3	.	.	.
Nc1ncnc(Nc2ccccc2Cl)n1
→ -3.0	0.6%	-0.2%	-0.6	17.7%	-1.7	3.5
C[C@@H]1CN([C@H](C)CO)C(=O)c2c(c3ccccc3n2C)-c2ccccc2CO[C@H]1CN(C)C(=O)Cc1ccccc1
→ -15.5	-9.5%	0.0%	-0.4	.	.	.
CCCn1cnc2cc(NCc3cccc(OC)c3O)ccc21
→ -5.1	?	-2.5%	-0.7	5.2%	-1.2	6.5
O=C(NNC(=O)c1cccc2ccccc12)c1ccc2c(c1)OCO2
→ -18.7	1.3%	2.2%	-0.5	18.4%	3.2	-12.3
Cc1nc2cc(C)c(C)cc2s1
→ 6.6	.	2.3%	-0.1	16.3%	-3.4	0.9
CCC1=C(Nc2ccccc2)COC1=O
→ -3.5	-2.6%	0.4%	-0.4	.	.	.
O=C(c1ccccc1)c1c[nH]c2ccccc12
→ -9.9	.	3.4%	-1.2	10.7%	0.2	8.9
COc1ccccc1NC(=O)COC(=O)c1c[nH]c(=O)[nH]c1=O
→ 12.8	0.7%	1.0%	-0.4	7.9%	0.0	4.4
CCN(C[C@H]1N[C@@](Cc2ccccc2)(C(=O)OC)[C@H]2C(=O)N(C)C(=O)[C@@H]12)C(=O)COc1ccccc1
→ -4.4	0.1%	-2.0%	1.1	.	.	.
COC(=O)C[C@H](NC(=O)Cn1cnc2c(OCc3ccccc3)ncnc21)C(=O)OC
→ -13.3	-0.7%	-0.9%	-0.4	.	.	.
COC(=O)c1sccc1NC(=O)CSCCc1ccncc1
→ -1.8	0.6%	-1.2%	-0.3	-6.2%	2.0	4.0
CCN(C(=O)c1nn(-c2ccc(OC)c(Cl)c2)c(=O)c2c1c1ccccc1n2C)c1cccc(C(F)(F)F)c1
→ -0.6	?	1.5%	-0.7	.	.	.
CS(=O)(=O)N1Cc2cc(C(=O)NCC3CC3)nc(-c3cccc(-c4cccnc4)c3)c2[C@@H]1CCO
→ .	-3.0%	6.9%	-0.5	.	.	.
COc1ccc(-c2cc(C(F)(F)F)n3nc(C(=O)NCc4ccco4)cc3n2)cc1OC
→ 8.5	-4.0%	11.8%	1.5	-8.2%	-1.7	6.0
O=C(CSc1nc(-c2ccccc2)no1)N1CCN(c2ccccc2)CC1
→ 4.0	-0.2%	-0.6%	1.0	.	.	.
CN(C)S(=O)(=O)Nc1ccc(NS(=O)(=O)N(C)C)c(S(=O)(=O)c2ccccc2)c1
→ -3.8	0.9%	1.1%	-0.7	-3.1%	1.2	0.4
CCCCc1ccc(N2C(=NC(=O)C3CCCO3)SC3CS(=O)(=O)CC32)cc1 (configuration not stated)
→ 3.8	0.2%	-1.3%	-1.5	10.1%	.	-3.9
COC(=O)c1ccc(/C=C(\C#N)C(=O)NC(C)c2ccccc2)cc1 (configuration not stated)
→ -1.8	-4.2%	-0.9%	0.4	31.6µM*	-0.4	4.9
Oc1c(Cl)cc(Cl)cc1C=Nc1ccc2c(c1)OCCO2
→ 12.3	-3.0%	1.4%	3.9	-7.7%	?	-7.5
Cc1ccc(C)c(-c2cc(C(=O)NC3CC3)c3ccccc3n2)c1
→ -7.0	0.7%	3.9%	-0.1	-5.1%	.	2.1
NS(=O)(=O)c1ccc(N/C=C\C(=O)c2ccncc2)cc1
→ 20.9	.	-0.1%	1.3	-4.6%	1.0	11.5
O=C(c1ccc(CS(=O)Cc2ccc(Cl)cc2)o1)N1CCN(c2ccc(F)cc2)CC1 (configuration not stated)
→ -0.1	-0.5%	1.7%	-0.8	0.0%	-2.7	-0.3
COc1cccc(CNC(=O)CN2C(=O)N(c3c(C)cccc3C)S(=O)(=O)c3ccccc32)c1OC
→ -10.1	-2.1%	1.1%	-0.1	.	.	.
COc1ccc2c(c1)CC(C(=O)Nc1cc(OC)c(OC)c(OC)c1)CO2 (configuration not stated)
→ -2.2	-2.7%	-0.3%	-0.3	.	.	.
O=C(C1=C[C@H](c2ccccc2)C[C@H](OCCCCO)O1)N1CCOCC1
→ -12.7	0.7%	2.3%	-0.9	16.4%	1.0	-8.1
Cc1cn([C@H]2C[C@H](O)[C@@H](/C=C/C(=O)NCCc3ccc(S(N)(=O)=O)cc3)O2)c(=O)[nH]c1=O
→ -11.1	-4.0%	3.1%	0.9	.	.	.
CC12CCC(C(=O)NCc3ccco3)(OC1=O)C2(C)C (configuration not stated)
→ -3.4	-2.0%	4.2%[38.3 µM]	0.1	16.2%	1.1	?
CCC(Sc1nnc2c3ccccc3n(C)c2n1)C(=O)Nc1nnc(C(C)C)s1 (configuration not stated)
→ 15.5	2.6%	2.0%	3.0	.	.	.
COc1ccc(CCN2C(=S)N(c3ccccc3)C(=O)C2CC(=O)O)cc1OC (configuration not stated)
→ -12.6	0.3%	5.6%	1.2	-0.3%	4.1	17.6
Cc1ccc(C#N)c(SCc2cccc(Br)c2)n1
→ 64.6	-0.1%	4.2%	4.0	.	.	.
CCOC(=O)c1c(C)[nH]c(C)c1C(=O)COC(=O)c1nn(CC)c(=O)c2ccccc12
→ 15.5	0.9%	0.1%	0.9	.	.	.
COc1cc(/C=N/NC(=O)c2csc3c2CCCC3)ccc1OCCN1CCOCC1
→ 55.9	1.0%	3.6%	-0.7	-4.6%	.	-0.6

Screening results: PubChem, National Center for Advancing Translational Sciences (NCATS)
